KCNQ2 enhance: potentiators of rat KCNQ2 potassium channel; CHO-K1 KCNQ2, FluxOR thallium flux fluorescence; hits give high values; 310,000 compounds, 0.54% hits; B-score at 10 µM;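 active = fluorescence ratio B-score at least 3 SD of library B-scores, with initial fluorescence B-score within 3 SD, cut at about 5.3 in these data; same plate scores as AID 2156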;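 also: B-score of peak minus minimum over baseline fluorescence ratio after K+ and Tl+ stimulus; positive B-score means potentiation of KCNQ2 with more thallium influx and brighter signal; only the inactives scoring about 0 or higher are listed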
Target sequence (O88943 whole entry, looked up): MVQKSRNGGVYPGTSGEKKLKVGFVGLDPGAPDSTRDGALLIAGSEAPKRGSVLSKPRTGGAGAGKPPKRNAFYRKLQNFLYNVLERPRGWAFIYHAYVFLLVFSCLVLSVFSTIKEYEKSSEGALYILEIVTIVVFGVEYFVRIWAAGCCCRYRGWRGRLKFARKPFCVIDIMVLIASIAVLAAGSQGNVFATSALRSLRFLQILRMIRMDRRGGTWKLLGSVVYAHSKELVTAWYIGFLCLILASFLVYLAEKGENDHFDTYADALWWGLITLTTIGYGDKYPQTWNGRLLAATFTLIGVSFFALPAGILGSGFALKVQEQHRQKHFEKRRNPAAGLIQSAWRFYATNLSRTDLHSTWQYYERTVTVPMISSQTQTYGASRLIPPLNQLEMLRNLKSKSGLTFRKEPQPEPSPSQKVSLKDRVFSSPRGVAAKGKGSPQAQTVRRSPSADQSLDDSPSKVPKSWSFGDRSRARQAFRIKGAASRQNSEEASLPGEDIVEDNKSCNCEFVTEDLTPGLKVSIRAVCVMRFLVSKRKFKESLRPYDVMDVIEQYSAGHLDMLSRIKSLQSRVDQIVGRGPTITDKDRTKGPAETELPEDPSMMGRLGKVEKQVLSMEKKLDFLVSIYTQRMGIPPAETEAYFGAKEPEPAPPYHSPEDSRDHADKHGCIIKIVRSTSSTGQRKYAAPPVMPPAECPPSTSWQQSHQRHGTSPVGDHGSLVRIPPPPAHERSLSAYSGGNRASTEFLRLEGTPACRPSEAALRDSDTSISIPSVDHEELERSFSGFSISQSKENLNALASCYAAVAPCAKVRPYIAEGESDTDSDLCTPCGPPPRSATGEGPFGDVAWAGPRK
KCNQ2 enhance baseline: also measured in KCNQ2 enhance; calls as there; B-score; compound at 10 µM; measured here: initial fluorescence intensity artifact check;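 brightness before thallium and not channel activity; 0 = typical well and far values either way flag optical interference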
An asterisk follows results filed as active. A portion of the library; rates above refer to the full screens.

SMILES	KCNQ2 enhance	KCNQ2 enhance baseline
CCC(C)NC(=O)CN(c1ccc(Cl)c(Cl)c1)S(C)(=O)=O (centres undefined)	1.06	-0.13
CN(CC(=O)Nc1cccc(S(=O)(=O)NC2=NCCCCC2)c1)Cc1ccc(C(C)(C)C)cc1	1.31	-0.22
CCn1cc(CCC(=O)NC2CCCC2)c2ccccc21	1.66	1.44
O=C(COC(=O)c1ccccc1O)Nc1cccnc1Cl	1.11	0.14
C/C(=C\C(=O)c1ccccc1)NNC(=O)c1ccc(Cl)cc1	17.6*	-1.26*
COc1cc(OC)cc(C(=O)N2CCN=C2SCc2cccnc2)c1	0.07	0.05
Cc1ccccc1S(=O)(=O)Cc1ccc(C(=O)NCCN(C)Cc2ccccc2)o1	0.06	0.14
O=C(NCCCN1CCCC1=O)C1CCN(S(=O)(=O)c2c(Cl)cccc2Cl)CC1	0.26	0.62
CCN(CC)CC(C)OC(=O)c1cc(OC)c(OC)c(OC)c1 (centres undefined)	0.28	0.36
Cc1ccc(CCN2CC(C(=O)NCCC(C)C)CC2=O)cc1 (centres undefined)	0.32	-0.02
CCOC(=O)c1c(-c2ccccc2)oc2ccc(OC(C)=O)cc12	1.06	-0.6
Nc1nnc(SCCOc2cccc(Br)c2)s1	3.43	0
CCn1c(SCC(=O)Nc2cc(C)on2)nnc1-c1ccc(C)cc1	1.26	-2.35
COc1ccc(C(=O)NC2CC2)cc1OC1CCN(Cc2ccccc2O)CC1	0.27	-1.67
CCc1ccccc1NC(=O)NC1CC2CCC(C1)N2Cc1ccco1 (centres undefined)	1.18	-0.6
COc1cccc(C(NC(C)=O)c2ccc3cccnc3c2O)c1 (centres undefined)	2.48	1.09
COc1cc(/C=C2\C(=N)N3N=C(C)SC3=NC2=O)cc(OC)c1OCCOc1ccccc1C	0.64	-0.01
Cc1cc2nccc(-c3ccncc3)n2n1	0.69	0.99
CN(Cc1ccc(O)cc1)C1CCCCC1	0.12	-0.76
CC(=O)Nc1ccc(NC(=O)c2cccc(C(=O)OC(C)C)n2)cc1	0.95	-2.02

Exported as labelled records: part of the list above
> CCN(CC)CC(C)OC(=O)c1cc(OC)c(OC)c(OC)c1 (centres undefined)
  KCNQ2 enhance: 0.28
  KCNQ2 enhance baseline: 0.36
> Cc1ccc(CCN2CC(C(=O)NCCC(C)C)CC2=O)cc1 (centres undefined)
  KCNQ2 enhance: 0.32
  KCNQ2 enhance baseline: -0.02

(list continues)
SMILES	KCNQ2 enhance	KCNQ2 enhance baseline
CCOC(=O)C1=C(C)N(C)C(=O)NC1c1c(C)nn(-c2ccccc2)c1C (centres undefined)	1.94	1.86
CSc1nc(-c2ccccc2)cc(C(F)(F)F)c1C#N	0.16	0.05
NS(=O)(=O)c1ccc(NC(=S)NNC(=O)CCC(=O)Nc2ccccc2Cl)cc1	1.34	-0.53
COc1ccc(CONS(=O)(=O)c2ccc(NC(C)=O)cc2)cc1Cl	1.61	0.1
O=C1NC(=S)S/C1=C\c1coc2ccccc2c1=O	1.74	-1.32
CCN(CC)c1ccc(NC(=O)COC(=O)CCC(=O)c2ccc(F)cc2)cc1	1	0.72
CCCS(=O)(=O)N1CCN(Cc2ccco2)CC1	0.6	-0.91
O=C(NC1=NCCS1)C12CC3CC(C1)CC(C(=O)NC1=NCCS1)(C3)C2	0.29	0.03
COc1cccc(CN=c2c([N+](=O)[O-])nn(-c3ccccc3C)n2O)c1	1	2.98
CCCCOCCCNC(=O)c1ccc([N+](=O)[O-])c(C)c1	0.27	-0.2
O=C(O)c1ccccc1NS(=O)(=O)c1cccc2cccnc12	0.79	-0.19
CCN(CC)S(=O)(=O)c1ccc(NC(=O)CSc2cccc[n+]2[O-])cc1	0.1	0.65
CSC(=S)N/N=C/c1ccccc1	9.34*	-0.82*
COCCn1c(SCC(=O)N2CCCCC2)nc2c(c1=O)SC(C)C2 (centres undefined)	0.32	-1.2
COc1ccc(-c2[nH]ncc2CN2CCC(N3CCSCC3)CC2)cc1F	0.61	-0.39
COc1ccc(S(=O)(=O)N(CCc2ccccc2)CC(N)=O)cc1	0.86	0.4
Cc1ccc2c(c1)C=CC(C)(C)S2(=O)=O	1.44	-1.74
CCN(CC)CCN(Cc1cc2cc3c(cc2[nH]c1=O)OCO3)C(=S)NCc1ccco1	1.44	-0.02
COc1ccccc1NC(=O)Nc1nc(CC(=O)N2CCN(c3ccccc3)CC2)cs1	1.02	-0.19
COc1cc(CNCc2ccc(SC)cc2)cc(OC)c1	1.16	-1.07
O=C(CCl)Nc1cccc(CP(=O)(c2ccccc2)c2ccccc2)c1	0.02	-1.39
O=C(O)CCC(=O)N1N=C(c2cccs2)CC1c1cccc([N+](=O)[O-])c1 (centres undefined)	0.16	0.98
CC1CN(C(=O)CCNC(=O)c2ccccc2Cl)CC(C)O1 (centres undefined)	0.01	0.2
O=C(/C=C/c1ccco1)NC(=S)Nc1ccccc1Br	0.73	2.55
CN(C)c1ccc(NC(=O)C[n+]2ccccc2)cc1	0.4	-0.37
O=C(O)Cn1c(SCc2ccccc2)nc2ccccc21	0.86	0.83
O=C(NCc1cccnc1)c1cc(-c2cccs2)on1	0.88	-2.45
CC(C)Cc1nnc(NC(=O)Cc2cccs2)s1	0.25	-0.58
Cc1ccc(C(O)P(=O)(OC(C)C)c2ccc(N(C)C)cc2)cc1 (centres undefined)	2.16	-1.11
OCCC1CN(Cc2ccc(Oc3ncccn3)cc2)CCN1Cc1ccc(F)c(F)c1 (centres undefined)	1.55	-1
Cc1ccc(C)c(OCCC(=O)OCC(=O)Nc2cccc(S(=O)(=O)N3CCCC3)c2)c1	0.99	0.7
COc1nonc1NCn1nc(C)cc1C	0.05	0.54
COc1ccc(C(C(=O)NC(C)(C)C)N(CCc2ccccc2)C(=O)CCC(=O)Nc2cc(C)on2)cc1 (centres undefined)	1.28	-0.33
O=C(COc1coc(CN2CCN(c3ccccc3)CC2)cc1=O)N1CCc2ccccc21	0.28	0.51
O=C(c1nc2ccccc2s1)N1CCSCC1	0.14	-0.06
Cc1cccc(N(O)C(=O)Nc2cccc(Cl)c2)c1	4.67	1.53
CCO[C@@H]1OC(C(=O)N2CCN(C)CC2)=C[C@H](c2csc3ccccc23)[C@H]1CCCO	0.21	1.46
Cc1ccc(S(=O)(=O)N2CCN(C(=O)COc3ccc(-c4nnco4)cc3)CC2)cc1	0.37	-0.17
CN(Cc1ncc[nH]1)C(=O)CC1C(=O)NCCN1Cc1c(F)cccc1Cl (centres undefined)	2.44	-0.27
O=C(NC1CCN(C(=O)Nc2cccc(F)c2)CC1)C1CCCCC1	0.75	-0.63
O=C(NC1=NCCS1)c1ccc(Br)s1	0.34	-0.82
O=C(COc1ccccc1)Nc1ccc(C(=O)N2CCCC2)cc1	1.61	-0.83
COc1ccc2cc(C(=O)Nc3ccc(Cl)cc3)sc(=O)c2c1OC	0.02	0.11
CC(C)NC(=O)NC(=O)COC(=O)/C=C/c1ccccc1[N+](=O)[O-]	1.1	0.06
CCCCSc1[nH]c(=O)c(C(=O)OCC)cc1C#N	0.11	1.25
CC1CCN(C(=O)c2ccc(S(=O)(=O)Cc3ccccc3F)c([N+](=O)[O-])c2)CC1	0.49	0.06
CC(=O)Nc1ccc(NC(=O)CSc2ccc3nnc(-c4ccccn4)n3n2)cc1	0.97	-0.68
COc1ccc(CC(=O)Nc2ccccc2N2CCCC2)cc1	0.91	-1.24
c1ccc2[nH]c(SCc3cn4cccnc4n3)nc2c1	0.51	0.01
O=C1CN(/N=C/c2ccc([N+](=O)[O-])o2)C(=O)N1	0.57	2.01
Cc1cc(NC(=O)CSc2nnc(CNc3cccc(C(F)(F)F)c3)n2Cc2ccco2)no1	2.68	-3.63
CCCCNC(=O)CNC(=S)N(Cc1ccccc1)Cc1cccnc1	0.18	0.03
COc1ccc(NC(=O)C(CC(=O)O)Cc2ccc(Cl)cc2)cc1 (centres undefined)	0.9	-0.31
O=C(CCN1C(=O)c2ccccc2C1=O)Nc1cccc(O)c1	0.03	-0.16
O=C(O)c1ccc(CN2C(=O)c3ccccc3S2(=O)=O)cc1	0.79	0.44
CCOc1ccccc1OCC(=O)NN1Cc2ccccc2C1=N	2.1	-1.35
COC(=O)Nc1sc2c(c1C(=O)N1CCOCC1)CCC(C)C2 (centres undefined)	1.27	-0.01
Cn1cc(S(=O)(=O)CC(=O)N2CCc3ccccc32)c2ccccc21	0.02	0.48
O=C(Nc1ncn[nH]1)c1cc(S(=O)(=O)Nc2cccc(C(F)(F)F)c2)ccc1Cl	0.7	-1.85
C/C(=N/NS(=O)(=O)c1cc(C)ccc1C)c1ccc2c(c1)OCO2	1.78	-0.34

Following part:
SMILES	KCNQ2 enhance	KCNQ2 enhance baseline
CC1(C)CC(=O)N(c2cc(Cl)ccc2Cl)C(=O)C1	0.01	1.01
CCOc1ccc(CCNC(=O)Cn2ccc3ccccc3c2=O)cc1OCC	1.17	-0.87
CCOc1nc(C)ccc1-c1noc(-c2ccccn2)n1	0.72	-1.1
CCn1cc(C2Nc3ccccc3C(=O)N2O)c(C)n1 (centres undefined)	1.55	0
Cc1ccc(Nc2nc(N)nc(CN3CCC(C)CC3)n2)c(C)c1	0.21	1.4
O=C(NCc1nnc(SCC(=O)N2CCN(c3ccccc3)CC2)o1)c1ccc(F)cc1	0.13	-1.16
O=C(Cn1nc(C(F)(F)F)c2c1CCC2)NCc1ccc(F)cc1	3.88	-1.43
CCc1ccc(S(=O)(=O)NCCc2cn3ccsc3n2)s1	2.59	-0.12
Cc1ccc(C(=O)N2N=C(c3ccccc3)CC2(O)C(F)(F)F)o1 (centres undefined)	2.2	2.76
CCOC(=O)c1ccc2c(c1)n(CC)c(C)[n+]2CC	0.04	0.95
COC(=O)CN(c1ccccc1)S(=O)(=O)c1cc(Br)ccc1OC	0.07	0.3
CN(C)CCNC(=O)COc1ccc(Cl)cc1Cl	0.3	-0.42
CC1=NN(c2nc3ccccc3[nH]2)C(=O)C1Cc1ccccc1 (centres undefined)	0.01	0.55
C/C(=N\Nc1ccc(C(=O)c2c(C)cc3ccccn23)cc1[N+](=O)[O-])c1ccc(O)cc1	0.85	-0.9
COc1ccc(NC(=O)Cn2c(=O)n(-c3ccccc3)c(=O)c3oc4ccccc4c32)c(OC)c1	0.14	1.7
CCOC(=O)Cc1csc(NS(=O)(=O)c2ccc(NC(C)=O)cc2)n1	0.38	0.25
COc1ccc(CNC(=O)CCC(=O)Nc2nnc(C(F)(F)F)s2)cc1	0.03	0.08
Cc1cc(NC(=O)CSc2nc3ccsc3c(=O)n2Cc2ccccn2)n[nH]1	0.45	0.25
CCN1C(=O)c2cccc3c(S(=O)(=O)Nc4ccc(OC)cc4OC)ccc1c23	1.15	-0.3
Cc1nc([N+](=O)[O-])cn1-c1nc2ccccn2c1[N+](=O)[O-]	0.27	-1.52
CCN(CC)CCN(Cc1cc2ccc(C)c(C)c2[nH]c1=O)C(=S)NCc1ccco1	0.01	1.16
N#Cc1ccsc1NC(=O)CN1CCCCC1	0.85	0.39
N[C@@H](Cc1cc(I)c(Oc2cc(I)c(O)c(I)c2)c(I)c1)C(=O)O	1.21	1.6
CC(=O)Oc1cccc(N2C(=O)c3ccc(C(=O)O)cc3C2=O)c1	0.36	1.26
O=[N+]([O-])c1cccc(CN2CCN(c3cccc4[nH]ccc34)CC2)c1	0.44	2.29
CC1Sc2ccc(S(=O)(=O)CCC(=O)Nc3ccccn3)cc2NC1=O (centres undefined)	0.73	-0.25
Cc1ccc2c(c1)C(c1ccc(F)cc1)N(C(=O)c1ccccc1Br)CC(=O)N2 (centres undefined)	0.81	-0.28
CCOC(=O)N1CCN(C(=O)CNC(=O)c2nn(-c3ccc(OC)cc3)c(=O)c3ccccc23)CC1	0.83	-0.95
Cc1ccc(-n2c3nc(=O)n(C)c(=O)c-3cc3ccccc32)cc1	3.42	0.4
COC(=O)CNC(=O)C1(C)C=CCN1C(=O)c1ccccc1 (centres undefined)	0.05	0.41
O=C(COC(=O)/C=C/c1ccc(S(=O)(=O)N2CCOCC2)cc1)NCc1ccc2c(c1)OCO2	0.21	-0.2
COc1ccc(C(=O)O/N=C(\N)c2ccc(OC)c(OC)c2)c(OC)c1	1.25	-0.24
CCCOC(=O)c1[nH]c2c(c1C)C(=O)CC(c1ccc(OC)c(OC)c1)C2 (centres undefined)	0.69	0.18
COc1cc(OC)c(-c2nc(-c3ccncc3)no2)cc1OC	1.22	0.14
CNC(=O)n1cc(C)c(-c2cccs2)n1	0.51	-0.19
Cc1ccc(N2CC(C(=O)Nc3ccc(S(=O)(=O)N4CCOCC4)cc3)CC2=O)cc1Cl (centres undefined)	1.98	-0.87
O=C(c1ccc(F)cc1)N(Cc1ccccc1)C1CCS(=O)(=O)C1 (centres undefined)	0.73	0.29
COc1ccccc1NC(=O)N(Cc1cccs1)Cc1cc2cc3c(cc2[nH]c1=O)OCO3	0.16	1.49

Structures listed so far that contain an aryl thioether with sulfur outside any ring:
SMILES	KCNQ2 enhance	KCNQ2 enhance baseline
Nc1nnc(SCCOc2cccc(Br)c2)s1	3.43	0
CCn1c(SCC(=O)Nc2cc(C)on2)nnc1-c1ccc(C)cc1	1.26	-2.35
CSc1nc(-c2ccccc2)cc(C(F)(F)F)c1C#N	0.16	0.05
CCN(CC)S(=O)(=O)c1ccc(NC(=O)CSc2cccc[n+]2[O-])cc1	0.1	0.65
COCCn1c(SCC(=O)N2CCCCC2)nc2c(c1=O)SC(C)C2 (centres undefined)	0.32	-1.2
COc1cc(CNCc2ccc(SC)cc2)cc(OC)c1	1.16	-1.07
O=C(O)Cn1c(SCc2ccccc2)nc2ccccc21	0.86	0.83
CCCCSc1[nH]c(=O)c(C(=O)OCC)cc1C#N	0.11	1.25
CC(=O)Nc1ccc(NC(=O)CSc2ccc3nnc(-c4ccccn4)n3n2)cc1	0.97	-0.68
c1ccc2[nH]c(SCc3cn4cccnc4n3)nc2c1	0.51	0.01
Cc1cc(NC(=O)CSc2nnc(CNc3cccc(C(F)(F)F)c3)n2Cc2ccco2)no1	2.68	-3.63
O=C(NCc1nnc(SCC(=O)N2CCN(c3ccccc3)CC2)o1)c1ccc(F)cc1	0.13	-1.16
Cc1cc(NC(=O)CSc2nc3ccsc3c(=O)n2Cc2ccccn2)n[nH]1	0.45	0.25

Screens deposited in PubChem BioAssay by Johns Hopkins Ion Channel Center.
